# Screening data (PubChem BioAssay)
# FGF22 binding – binders of human FGF22 protein, primary screen, FGF22 synaptogenesis inhibitor project, biophysical, thermal shift, single point. calls only at 9.99 µM. 1.5% of 340,000 active. recombinant FGF22 thermal shift, SYPRO orange fluorescence; percent of sucrose octasulfate shift, DMSO zero. Fibroblast growth factor 22 (Homo sapiens), Q9HCT0;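 active = melting point raised past a set limit in the mean and every replicate; inconclusive = no clear call; three in four hits are not shown here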
# Target sequence (Q9HCT0 whole entry, looked up): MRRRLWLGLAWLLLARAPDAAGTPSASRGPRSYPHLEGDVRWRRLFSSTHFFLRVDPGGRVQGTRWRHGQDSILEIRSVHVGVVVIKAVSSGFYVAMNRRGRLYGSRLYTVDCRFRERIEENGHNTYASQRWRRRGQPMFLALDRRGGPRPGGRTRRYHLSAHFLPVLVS
# AF4-AF9 inh – inhibitors of AF4 peptide binding to AF9, primary screen, biochemical, AlphaScreen, biotin-AF4 peptide, FLAG-AF9, single point; Protein AF-9 (Homo sapiens), P42568; inhibition, % at 10 µM; 0.47% of 350,000 active;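 active = every replicate reaching a set inhibition limit, whatever the replicate mean, cut at about 25% in these data; inconclusive = mean inhibition reaches that limit but some replicates miss it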;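 note: 0% = plate neutral control median and 100% = total signal loss; the record names both 10 and 1 µM as test concentration; the first replicate is given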
# Target sequence (P42568 whole entry, looked up): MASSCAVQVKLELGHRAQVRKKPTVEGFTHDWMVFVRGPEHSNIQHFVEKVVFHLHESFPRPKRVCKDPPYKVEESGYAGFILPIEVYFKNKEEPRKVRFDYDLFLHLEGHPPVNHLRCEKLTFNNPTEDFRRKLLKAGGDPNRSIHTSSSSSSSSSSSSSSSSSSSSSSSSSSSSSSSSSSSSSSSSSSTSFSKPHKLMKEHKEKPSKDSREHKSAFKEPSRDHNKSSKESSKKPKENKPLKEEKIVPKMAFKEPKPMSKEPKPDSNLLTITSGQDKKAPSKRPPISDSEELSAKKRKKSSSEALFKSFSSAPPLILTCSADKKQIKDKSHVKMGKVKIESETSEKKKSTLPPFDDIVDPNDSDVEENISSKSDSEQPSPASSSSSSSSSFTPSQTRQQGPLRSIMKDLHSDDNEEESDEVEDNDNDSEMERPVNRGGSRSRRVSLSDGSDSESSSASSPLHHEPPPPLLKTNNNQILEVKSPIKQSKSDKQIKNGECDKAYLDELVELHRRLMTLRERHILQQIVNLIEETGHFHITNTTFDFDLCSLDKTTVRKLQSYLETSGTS
# Starred values were filed as active, the others as inactive; i = inactive; ? = inconclusive; + = active, no number. Not all compounds are listed; the hit share may differ from the screen's.
SMILES,FGF22 binding,AF4-AF9 inh
OCCNc1ncnc2c1ncn2[C@H]1CN(C2CCCC2)C[C@@H](CO)O1,i,-5.6
CN(CC(=O)Nc1cccc(F)c1)CC(=O)Nc1cccc(S(=O)(=O)N(C)c2ccccc2)c1,i,3.2
OC[C@@H]1CN(Cc2ccc(Cl)cc2)C[C@H](n2cnc3c(N4CCOCC4)ncnc32)O1,i,-1.6
CCN(CCO)c1ccc(Nc2cc(-c3ccc(-c4ccccc4)cc3)ncn2)cc1,i,6.8
CC1C(c2ccc3c(c2)OCO3)c2cc3c(cc2OC1N1CCOCC1)OCO3 (configuration not stated),i,18
COCc1ccc(C(=O)OC(C)C(=O)Nc2c(C)n(C)n(-c3ccccc3)c2=O)cc1 (configuration not stated),i,-5.7
CCOC(=O)/C(=C\Nc1cccc(OCc2ccccc2)c1)NC(=O)c1ccccc1,i,-0.2
CN(C)C(=O)c1ccc(-c2ccc([C@@H]3[C@@H](CO)N4CCCCN(C(=O)C5CCCC5)C[C@@H]34)cc2)cc1,i,-7.3
CC1CCCCN1CCCNC(=O)c1ccc2c(c1)NC(=O)CN2C (configuration not stated),i,-1.7
CCCCNC(=O)C1(C)CCCCN1C(=O)c1ccc(F)cc1Cl (configuration not stated),i,-6.9

# Part of the list above in order of SMILES length, ascending:
SMILES,FGF22 binding,AF4-AF9 inh
CCCCNC(=O)C1(C)CCCCN1C(=O)c1ccc(F)cc1Cl (configuration not stated),i,-6.9
CCN(CCO)c1ccc(Nc2cc(-c3ccc(-c4ccccc4)cc3)ncn2)cc1,i,6.8
COCc1ccc(C(=O)OC(C)C(=O)Nc2c(C)n(C)n(-c3ccccc3)c2=O)cc1 (configuration not stated),i,-5.7
CN(CC(=O)Nc1cccc(F)c1)CC(=O)Nc1cccc(S(=O)(=O)N(C)c2ccccc2)c1,i,3.2

# The listing continues:
SMILES,FGF22 binding,AF4-AF9 inh
CC1(C(=O)NS(=O)(=O)c2ccc(C#N)cc2)CCN1C(=O)C1(c2ccccc2)CC1 (configuration not stated),i,-1.3
COC(=O)C1=C(NC(=O)C2CCCCC2)CCS1,i,9.3
CN1C(=O)c2cc(NC(=O)c3ccc(F)c(F)c3)ccc2OC[C@@H]2O[C@H](CC(=O)N3CCOCC3)CC[C@H]21,i,-1.7
COc1cccc(-c2cnc3c(NC(C)=O)cc(-c4cccc(C(=O)NCCN(C)C)c4)cn23)c1,i,?
CCOC(=O)c1c(NC(=O)COC(=O)c2ccc(Cl)nc2)sc(C)c1C,i,-1.3
CNC[C@@H]1Oc2c(NS(=O)(=O)c3ccc(OC)cc3)cccc2C(=O)N([C@@H](C)CO)C[C@@H]1C,+,-4.7
CO[C@@H]1CN(C)C(=O)c2ccc(NC(C)=O)cc2OC[C@@H](C)N(C(=O)CN2CCOCC2)C[C@H]1C,i,-1.9
CC(C)Cc1ccc(CN2CC[C@@H](NS(=O)(=O)c3ccccc3)C2)cc1,i,5.4
O=C1O[C@H](c2ccccc2)[C@H](c2ccccc2)N2[C@H]1[C@@H](C(=O)N1CCN(c3ncccn3)CC1)[C@]1(C(=O)Nc3ccc(C#CCCO)cc31)[C@H]2c1ccc(OCCO)cc1,i,-2.2
Cn1cnc(S(=O)(=O)N2CCCCN3[C@H](C2)[C@@H](c2ccc(C#CC4CC4)cc2)[C@@H]3CO)c1,i,-3.1

# Single values from the entries so far:
# AF4-AF9 inh with Cn1cnc(S(=O)(=O)N2CCCCN3[C@H](C2)[C@@H](c2ccc(C#CC4CC4)cc2)[C@@H]3CO)c1 is entered as -3.1
# AF4-AF9 inh with CC(C)Cc1ccc(CN2CC[C@@H](NS(=O)(=O)c3ccccc3)C2)cc1 is entered as 5.4
# AF4-AF9 inh with CCOC(=O)c1c(NC(=O)COC(=O)c2ccc(Cl)nc2)sc(C)c1C is entered as -1.3
# AF4-AF9 inh with CNC[C@@H]1Oc2c(NS(=O)(=O)c3ccc(OC)cc3)cccc2C(=O)N([C@@H](C)CO)C[C@@H]1C is entered as -4.7
# AF4-AF9 inh with CC1(C(=O)NS(=O)(=O)c2ccc(C#N)cc2)CCN1C(=O)C1(c2ccccc2)CC1 (configuration not stated) is entered as -1.3

# Next part
SMILES,FGF22 binding,AF4-AF9 inh
OC[C@@H]1[C@@H](c2ccc(-c3cccnc3)cc2)[C@H]2CN(CC3CCOCC3)CCCCN12,i,0.8
CCCC(CC)Sc1nc2c([nH]1)c(=S)n(C)c(=O)n2C (configuration not stated),i,0.3
CCOC(=O)C1(NC(=O)C2(NC(=O)CN3C(=O)c4ccccc4C3=O)CCCC2)CCCC1,i,1.5
CCC1CC(C(=O)O)CC(=O)N1 (configuration not stated),i,1.2
CO[C@H]1O[C@H](CO)[C@@H](OC(=O)c2ccc(Br)cc2)[C@H](OC(=O)c2cc3ccccc3[nH]2)[C@H]1OC(=O)c1cc2ccccc2[nH]1,i,0.0
COC(=O)C[C@H]1CC[C@H]2[C@H](COc3ccc(NC(=O)c4ccc(F)c(F)c4)cc3C(=O)N2C)O1,i,-2.1
CC1(C)N=C(N)NC(Nc2ccc(Cl)cc2)=N1,i,1.4
Nc1nc(SCc2ccccc2)sc1C(=O)N1CCCCC1,i,-1.9
Cc1noc(C)c1NC(=O)N(C)C[C@H]1Oc2c(NC(=O)Nc3ccc(C(F)(F)F)cc3)cccc2C(=O)N([C@H](C)CO)C[C@H]1C,i,-1.6
C#Cc1ccc([C@@H]2C=C(C(=O)N3CCCCCCC3)O[C@H](OCCCCO)C2)cc1,i,1.0

# Reprinted at random: 2 records from the list
SMILES,FGF22 binding,AF4-AF9 inh
C#Cc1ccc([C@@H]2C=C(C(=O)N3CCCCCCC3)O[C@H](OCCCCO)C2)cc1,i,1.0
COC(=O)C[C@H]1CC[C@H]2[C@H](COc3ccc(NC(=O)c4ccc(F)c(F)c4)cc3C(=O)N2C)O1,i,-2.1

# (list continues)
SMILES,FGF22 binding,AF4-AF9 inh
CC(C)(C)NC(=O)C1c2ccccc2OCC(=O)N1Cc1ccco1 (configuration not stated),i,-1.5
O=C/C=C/c1ccc(-c2ccccc2)cc1,i,1.8
CCCCCCCCCCCC1N=C(N)NC(CCCO)=C1C(=O)OC (configuration not stated),i,8.2
CN(C)C(=O)C[C@@H]1C=C[C@H](NC(=O)C2CCC2)[C@@H](CO)O1,i,-2.5
O=C(Nc1ccc2ccccc2c1)OC1CCS(=O)(=O)C1 (configuration not stated),i,-2.6
COCCOC(=O)N1C(=O)[C@@]2(c3cc(C#CC4=CCCCC4)ccc31)[C@H](C(=O)NC[C@H](O)c1ccccc1)[C@H]1C(=O)O[C@H](c3ccccc3)[C@H](c3ccccc3)N1[C@@H]2c1ccc(O)cc1,i,-1.3
Cc1ccc(-c2ccc([C@H]3[C@H]4CN(S(=O)(=O)c5cccc(C)c5)CCCCN4[C@H]3CO)cc2)cc1,i,-8.6
Cc1noc(C)c1S(=O)(=O)N(C)C[C@@H]1OCCCC[C@@H](C)Oc2ccc(NS(C)(=O)=O)cc2C(=O)N([C@@H](C)CO)C[C@H]1C,i,-11
CC(C)C(N)c1csc(Nc2ccc(C(=O)N(C)Cc3ccccc3)cn2)n1 (configuration not stated),i,7.2
CCOc1ccccc1C(=O)Nc1nnc(SCC(=O)N2CCCC2)s1,i,-11
O=C(C1CCCC1)N1CCCCN2[C@H](CO)[C@@H](c3ccc(C#CC4(O)CCCC4)cc3)[C@@H]2C1,i,-4.2
CC(Nc1ccc([N+](=O)[O-])cc1[N+](=O)[O-])c1ccccc1 (configuration not stated),i,5.9
Cc1c[n+]([O-])ccc1[N+](=O)[O-],i,-5.2
CCCNC(=O)c1cc(C2CCCCN2C(=O)c2ccc(C#N)cc2)on1 (configuration not stated),i,-0.8
Cc1ccc(N2CCC3CC2c2cc(-c4ccc(C(F)(F)F)cc4)ccc23)cc1 (configuration not stated),i,3.0
CO[C@H]1O[C@H](CO)[C@@H](OC(=O)Nc2cccc(F)c2)[C@H](OC(=O)Nc2ccccc2)[C@H]1OC(=O)Nc1ccccc1,i,0.4
COc1ccc(C)cc1Nc1ncnc2c1nnn2Cc1ccccc1Cl,i,-2.7
CN1C(=O)N[C@@H]2c3ccccc3O[C@@]1(C)[C@@H]2CO,i,0.9
COc1ccc(/C=C/C(=O)OCC(=O)NC2CCS(=O)(=O)C2)cc1 (configuration not stated),i,-2.6
O=S(c1ccccc1O)S(=O)c1ccccc1O (configuration not stated),i,11
COc1cc(CO)cc(I)c1O[C@H]1C=C(C(=O)NCCO)C[C@@H](N(C(=O)c2cc3ccccc3oc2=O)C2CCCCCC2)[C@@H]1O,i,1.5
C[C@H](CO)N1C[C@H](C)[C@H](CN(C)CC2CC2)Oc2ccc(NC(=O)Nc3ccc(F)cc3)cc2CC1=O,i,4.3
CC(Cl)=CCn1c(NCCc2ccccc2)nc2c1c(=O)n(C)c(=O)n2C,i,1.3
COc1ccc2c(C)cc(=O)oc2c1,i,-0.9
O=C(NNC(=O)c1ccncc1)Nc1ccc(N=Nc2ccccc2)cc1,i,3.7
O=C1NC(=S)SC1=Cc1ccc(Cl)cc1,i,-1.1
CC1=C(C(=O)N2CCCCCC2)CC(CC(=O)NCCc2ccccn2)C(=O)N1Cc1ccc(C(C)(C)C)cc1 (configuration not stated),i,0.8
O=C1CS(=O)(=O)C(c2ccccc2)N1c1ccc(-c2ccccc2)cc1 (configuration not stated),i,-4.0
COc1ccc(NC(=O)C2Cc3c(-c4cccc(C(N)=O)c4)ccnc3O2)cc1 (configuration not stated),i,-1.1
Cc1cccc(CNc2ncnc3[nH]ncc23)c1,i,0.3
C#Cc1ccc([C@H]2C=C(C(=O)Nc3ccccc3)O[C@@H](OCCCCO)C2)cc1,i,-1.2
C[C@@H]1CCCCO[C@@H](CN(C)CC2CC2)[C@H](C)CN([C@@H](C)CO)C(=O)c2cc(NS(=O)(=O)c3ccc(Cl)cc3)ccc2O1,i,9.2
COC(=O)[C@@H]1N=C(c2ccc(OCCCO)cc2)O[C@@H]1c1ccccc1N=[N+]=[N-],i,4.6
C=C1C(=O)O[C@H]2C[C@H]1[C@@H](OC(C)=O)C/C(C)=C/CC/C(C)=C\CC[C@]2(C)O,i,-1.2
CC(=O)C1CCC2C3CCC4=CC(=O)CCC4(C)C3C(O)CC12C (configuration not stated),i,-3.5
CC(=O)Nc1ccc2ccccc2c1[N+](=O)[O-],i,1.8
C[C@H](CO)N1C[C@H](C)[C@H](CN(C)Cc2ccc(Cl)c(Cl)c2)Oc2c(NS(=O)(=O)c3ccc(Cl)cc3)cccc2C1=O,i,1.1
CO[C@@H]1CN(C)C(=O)c2ccc(NC(=O)c3ccccn3)cc2OC[C@@H](C)N(C(=O)C2CCCC2)C[C@H]1C,i,-8.3
COC(=O)[C@]1(CCC(=O)OC(C)(C)C)N=C(c2ccc(OCCCO)cc2)O[C@@H]1c1ccccc1,i,5.4
CSc1ccc(NC(=O)C2(C)CCN2C(=O)c2cc(C)n(C)n2)cc1 (configuration not stated),i,-1.8
CC1=C(C(=O)N(C(C)C)C(C)C)CC(CC(=O)NCC2CCCCC2)C(=O)N1Cc1ccc(C(C)(C)C)cc1 (configuration not stated),i,1.0
COc1cc(C=Cc2nnc3c4ccccc4cnn23)cc(OC)c1OC,i,0.8
COc1cccc(CN2CCC2(C)C(=O)Nc2cnc3ccccc3c2)c1F (configuration not stated),i,1.2
COc1ccc(CNC(=O)c2ccc(S(=O)(=O)NCc3ccco3)cc2)cc1,i,-1.8
CN(C)CC#Cc1ccc([C@@H]2[C@H]3CN(C(=O)C4CCCC4)CCCCN3[C@H]2CO)cc1,i,-3.2
C#Cc1ccc(NC(=O)C2(C)CCN2C(=O)C/C=C/c2ccccc2)cc1 (configuration not stated),i,-0.1
CO[C@H](CN(C)C(=O)C1CCOCC1)[C@@H](C)CN(C(=O)Nc1ccc(C(F)(F)F)cc1)[C@H](C)CO,i,-7.4
Cc1ccccc1NC(=O)C1=CC=CN2CCS(=O)(=O)N=C12,i,-0.5
NCCCCCCNC(=O)[C@@H]1C[C@@H]2C(=O)NCC(=O)N2[C@@H]1c1ccc(O)cc1,i,0.7
Cc1noc(C)c1NC(=O)N(C)C[C@@H]1Oc2c(NC(=O)Nc3ccc(C(F)(F)F)cc3)cccc2C(=O)N([C@@H](C)CO)C[C@@H]1C,i,-1.8
# Later entries.
SMILES,FGF22 binding,AF4-AF9 inh
CC1(C(=O)Nc2cccc(Oc3ccccc3)c2)CCN1C1Cc2ccccc2C1 (configuration not stated),i,1.2
O=C(C1=C[C@@H](c2ccc3c(c2)OCO3)C[C@@H](OCc2ccc(CO)cc2)O1)N1CCCCCCC1,i,-1.9
COc1cc2c(cc1OC)CN(C(=O)[C@H]1[C@@H]3C(=O)O[C@@H](c4ccccc4)[C@@H](c4ccccc4)N3[C@@H](c3ccc(OCCO)cc3)[C@]13C(=O)Nc1ccc(C#CC4(O)CCCCCC4)cc13)CC2,i,-2.7
CCN(CC)CCNC(=O)c1ccc(NC(=O)c2cccc(S(=O)(=O)N(C)C3CCCCC3)c2)cc1,i,18
C=CCN1C(=O)[C@@]2(O[C@@H](CCO)[C@H]([Si](C)(C)c3ccc(OC)cc3)[C@H]2C)c2ccccc21,i,1.9
CCO[C@@H]1OC(C(=O)Nc2ccccc2)=C[C@H](c2cn(C(C)=O)c3ccccc23)[C@H]1CCCO,i,-12
S=C(Nc1cccc2ccccc12)NN1CCCCCC1,i,3.4
Cc1ccc2nc(-c3ccco3)c(CC(C)(C)C)n2c1,i,-4.9
Cc1ccc(-c2ccc(CN3C(C(C)C)C(=O)N(Cc4cn(Cc5ccco5)nn4)CCS3(=O)=O)cc2)cc1 (configuration not stated),i,-2.4
Cc1ccccc1OCC(=O)OCC(=O)Nc1ccc2c(c1)OCCO2,i,-0.1
CCc1nc2c(OCc3cc(Cl)cc(Cl)c3)cccn2c1N(C)C(=O)Nc1ccccc1OC,i,0.9
O=C(C1CC1)N1CCCCN2[C@@H](CO)[C@@H](c3ccc(C#CC4(O)CCCC4)cc3)[C@@H]2C1,i,-3.9
CCCc1nc2c(C)cc(Br)cn2c1Cc1ccc(OC)cc1C,i,3.9
